# Vif TR-FRET – inhibitors of Vif binding to APOBEC3G peptide, primary screen, biochemical, TR-FRET, GST-Vif 1-94, biotin-A3G peptide, dose response retest (AID 1117319); Virion infectivity factor (Human immunodeficiency virus type 1 group M subtype B (isolate …; TR-FRET GST-Vif / biotin-A3G peptide binding; higher % means a stronger effect; test concentration not given here; strong numbers were not always called active; inhibition, %, or IC50 in µM where a hit was titrated; 0.57% of 260,000 active;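 active = above the screen mean plus three standard deviations and confirmed in dose response; inconclusive = results disagree or hit not tested in dose response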;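 note: Vif residues 1-94 fused to GST binding biotinylated APOBEC3G peptide 110-148; 0% = full assay without inhibitor and 100% = GST in place of GST-Vif; retest series ran down from 100 µM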
# LANA-H2B inh – blockers of LANA interaction with H2A/H2B – biochemical, FP readout, HTS, primary screen; cell-free LANA-H2A/H2B peptide, fluorescence polarization; inhibition, % (no concentration beside the values); Protein LANA1 (Human herpesvirus 8 type P (isolate GK18)), Q9QR71; 0.6% of 320,000 active; in the data active = inhibition mostly above about 10%, no sharp cut-off; inactive = mostly below about 6.7%;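 note: stock transfer was 7.5 nL into about 10 µL; 0% = median of vehicle wells and 100% = median of positive control wells; one replicate is shown; the record names a cut of 25% in any replicate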
# Target sequence (Q9QR71 whole entry, looked up): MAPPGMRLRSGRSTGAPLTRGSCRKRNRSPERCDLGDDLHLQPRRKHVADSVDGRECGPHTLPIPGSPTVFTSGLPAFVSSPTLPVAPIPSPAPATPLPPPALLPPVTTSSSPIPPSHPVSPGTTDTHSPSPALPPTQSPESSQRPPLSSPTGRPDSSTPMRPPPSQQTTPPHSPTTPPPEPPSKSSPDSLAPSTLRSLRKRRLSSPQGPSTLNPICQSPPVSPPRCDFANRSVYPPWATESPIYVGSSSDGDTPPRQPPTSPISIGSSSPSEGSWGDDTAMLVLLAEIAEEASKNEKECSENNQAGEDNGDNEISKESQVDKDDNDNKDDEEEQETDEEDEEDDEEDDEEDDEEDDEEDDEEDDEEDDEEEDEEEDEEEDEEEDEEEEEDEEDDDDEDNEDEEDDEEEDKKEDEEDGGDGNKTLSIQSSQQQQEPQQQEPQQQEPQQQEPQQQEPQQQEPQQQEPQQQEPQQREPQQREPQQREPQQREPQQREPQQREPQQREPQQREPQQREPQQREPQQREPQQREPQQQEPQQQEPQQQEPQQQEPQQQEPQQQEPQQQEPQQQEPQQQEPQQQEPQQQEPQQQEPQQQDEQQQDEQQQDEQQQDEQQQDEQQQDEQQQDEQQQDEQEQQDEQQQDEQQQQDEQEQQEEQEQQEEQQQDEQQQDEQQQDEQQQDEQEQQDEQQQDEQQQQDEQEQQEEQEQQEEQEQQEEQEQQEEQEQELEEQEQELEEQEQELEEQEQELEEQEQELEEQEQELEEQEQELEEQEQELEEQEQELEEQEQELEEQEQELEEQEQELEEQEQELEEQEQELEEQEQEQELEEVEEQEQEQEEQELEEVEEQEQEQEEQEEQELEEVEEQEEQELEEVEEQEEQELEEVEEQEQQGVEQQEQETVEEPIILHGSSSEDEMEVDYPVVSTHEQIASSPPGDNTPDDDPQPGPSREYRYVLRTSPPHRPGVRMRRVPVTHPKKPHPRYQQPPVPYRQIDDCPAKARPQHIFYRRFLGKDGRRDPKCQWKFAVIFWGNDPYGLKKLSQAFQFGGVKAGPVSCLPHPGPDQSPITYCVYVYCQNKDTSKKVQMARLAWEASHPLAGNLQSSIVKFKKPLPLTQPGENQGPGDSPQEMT
# Calb FLC – C. albicans growth inhibition with fluconazole, primary screen, CaCi-2 strain, Alamar Blue fluorescence; growth inhibition, % (no concentration beside the values); 0.57% of 300,000 active; C. albicans CaCi-2 (fluconazole-resistant clinical isolate) + fluconazole, 48 h;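 active = most replicates above 75%; inconclusive = exactly half above 75%; inactive = most below 75%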;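 note: all wells also contain fluconazole at 8 µg/ml as a sub-toxic cotreatment; 0% = median of DMSO wells and 100% = median of geldanamycin control wells; wells of about 8 µL received 7.5 nL stock; the first replicate is given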
# AF4-AF9 inh – inhibitors of AF4 peptide binding to AF9, primary screen, biochemical, AlphaScreen, biotin-AF4 peptide, FLAG-AF9, single point | inhibition, % at 10 µM | 0.47% of 350,000 active;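 active = every replicate reaching a set inhibition limit, whatever the replicate mean, cut at about 25% in these data; inconclusive = mean inhibition reaches that limit but some replicates miss it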;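 note: 0% = plate neutral control median and 100% = total signal loss; the record names both 10 and 1 µM as test concentration; the first replicate is given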
# RanGTP-Impb inh – inhibitors of RanGTP-importin-beta interaction, primary screen, biochemical, FRET, CFP-Ran, YFP-importin-beta, homogeneous | Ran GTPase (GTP-bound) - importin-beta complex | cell-free CFP-Ran/YFP-importin-beta FRET ratio | inhibition, % (no concentration beside the values) | 1.1% of 300,000 active | AID 2216, 2009;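 active = most replicates above 15%; inconclusive = exactly half above 15%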;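 note: 0% = DMSO wells and 100% = Ran loaded with GDP instead of GTP; wells of about 40 µL received 100 nL stock; the first replicate is given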
# Bfl-1 A1 inh – caspase 3/7 activation in MEF A1-2A-BIM cells, primary screen, A1 inhibitor project, cell-based, luminescence, HTS; Caspase-Glo 3/7 luminescence, 3 h; percent of clofoctol response, vehicle zero; caspase activation, % (test concentration not listed); 0.066% of 330,000 active; AID 2462, 2010;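 active = over half of replicate activation scores above 10%, or exactly half above 10 with the replicate mean above 10; inconclusive = replicate mean below 10 yet half the replicates above 10; inactive = over half of replicates below 10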;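 note: wells of about 30 µL received 50 nL stock; many hits fall short of the cut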
# Beta apoptosis – inhibitors of cytokine-induced beta cell apoptosis, primary screen, luminescence | INS-1E cytokine-induced death, ATP luminescence, 48 h; percent of positive-control rescue, neutral wells zero | protection from apoptosis, % (no concentration beside the values) | 0.8% of 300,000 active;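 active = all replicates at 75% or more, or half of them and the mean; inconclusive = half reach 75% but not the mean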;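 note: 0% = cytokine-treated negative control wells and 100% = positive control rescue; higher means more ATP so stronger rescue from cytokine killing; wells of about 40 µL received 100 nL stock; the first replicate is given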
# T cruzi inh – inhibitors of intracellular T. cruzi growth, primary screen, luminescence, NIH3T3 host cells; T. cruzi beta-gal in NIH3T3, 90 h; inhibition, % (test concentration not listed); 1.4% of 300,000 active;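 active = mean inhibition across valid replicates above about 55%, limit read from the data; inconclusive = mean below that limit but half or more replicates reach it; inactive = mean below it, under half of replicates reach it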;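 note: signal also drops with host cell toxicity which is not excluded here; 0% = plate median of DMSO wells and 100% = zero luminescence signal; higher percent means less beta-gal luminescence so fewer parasites; stock transfer was 50 nL into about 50 µL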
# The depositor's hits bear a star; ? = inconclusive; . = not tested or not shown. Compounds as they come; about 4.3% have a hit in one of these screens.
entry	SMILES	LANA-H2B inh	RanGTP-Impb inh	Beta apoptosis	Vif TR-FRET	Bfl-1 A1 inh	Calb FLC	T cruzi inh	AF4-AF9 inh
1	O=C1CSc2ccc(S(=O)(=O)NCc3ccccc3Cl)cc2N1	5.5	3.2	-10	.	-0.8	?	-4	-0.8
2	COc1cc(/C=N\Nc2nncn2N)ccc1OC(C)=O	-2.4	3.0	5	.	0.3	24	-17	-1.1
3	O=C(Nc1ccc(Cl)c(C(F)(F)F)c1)NC1CC2CCCC(C1)N2C1CC1 (stereo not given)	1.4	0.1	15	-1%	2.0	.	33	.
4	O=C(CN1CCN(c2ccccc2)CC1)N1CCc2[nH]c3ccccc3c2C1	-0.5	.	-7	1%	-0.4	.	.	.
5	CC1CCN(c2ccccc2NC(=O)c2ccc([N+](=O)[O-])o2)CC1	-0.8	4.4	2	.	-0.6	2	43	1.2
6	Cc1ccnc(NC(=O)c2cc3c(=O)oc4ccc(C)cc4c3s2)c1	5.9	3.7	32	16%	3.0	0	-10	-1.8
7	COCCCNC(=O)c1cc2c(-c3cccc(OC)c3)nn(C)c2s1	0.0	?	3	.	1.1	11	1	-2.6
8	COc1ccc(C(=O)Oc2ccc(/C=N/O)cc2)cc1	0.8	0.3	2	4%	-2.1	-12	-5	.
9	Fc1cccc(Cn2ccc(-c3ccc4c(c3)OCO4)n2)c1	-7.1	3.0	-6	3%	-0.8	-34	-6	.
10	O=C(CCCN1C(=O)/C(=C/c2ccc3c(c2)OCO3)SC1=S)Nc1ccc(C(=O)O)cc1	-2.2	-49	-3	-2%	-11	20	-19	4.0
11	Cc1ccc(C)c(NC(=O)CN(C)C(=O)c2ccc(S(=O)(=O)N(C)c3ccccc3)cc2)c1	-3.9	.	3	-13%	-0.9	.	.	-1.2
12	N#CC1(C#N)C(C(N)=O)C1c1ccccc1 (stereo not given)	-4.2	?	-1	-1%	-0.9	-2	-5	.
13	O=C(NN1CCOCC1)c1cc(-c2ccc(Br)s2)nc2ccccc12	2.5	1.6	2	2%	-0.2	-3	7	-1.4
14	CCOc1ccccc1CN1CCN(CCCn2cccn2)CC1CCO (stereo not given)	0.6	0.7	0	?	0.4	-1	-19	-6.0
15	CCOc1ccccc1N1CCN(C(=O)CNC(=O)c2ccc(OC)c(OC)c2)CC1	-4.2	7.4	-2	.	0.0	13	-4	-1.9
16	Cc1cc(NC(=O)C(C)C)ncc1NC(=O)c1cccc(F)c1	-1.7	-2.7	1	-9%	0.7	-4	-29	.
17	CCCn1c(C(C)Nc2nc(C)cs2)nc2cc(Cl)c(Cl)cc21 (stereo not given)	0.3	0.7	-4	.	0.3	15	-9	-9.6
18	COc1cc(/C=N/NC(=O)c2ccc(=O)[nH]n2)ccc1O	-2.4	0.1	-3	?	-0.8	-6	-18	.
19	COc1cccc(NC(=O)/C=C/c2ccc([N+](=O)[O-])cc2)c1	0.5	-1.6	8	0%	-3.0	-4	-17	1.9
20	COC(=O)N/N=C\C=C\c1ccc2c(c1)OCO2	5.4	-4.2	.	1%	-0.1	-3	-11	.
21	CCCn1nnnc1NCc1cccc(Cl)c1	-3.2	1.4	-1	.	1.0	-2	-15	-3.9
22	Cc1ccc(-n2ncc3c(=O)n(CC(=O)N4CCN(c5ccccc5)CC4)cnc32)cc1	.	3.3	10	.	-0.8	18	7	0.8
23	Cc1ccc(C)c2[nH]c(=O)c(CCNC(=O)c3ccc(Br)o3)cc12	4.7	-0.5	.	-23%	0.5	65	-4	-32
24	Cc1[nH]c2ccccc2c1C(=O)COC(=O)c1ccc[n+]([O-])c1	5.2	0.9	-4	.	-0.5	4	-7	1.1
25	COc1ccccc1-c1nn2c(C3COc4ccccc4O3)nnc2s1 (stereo not given)	0.2	3.0	0	-31%	-1.8	10	11	.
26	Fc1cc(NCc2ccccc2)nc(NCc2ccccc2)n1	-1.0	2.6	-12	-1%	-0.1	6	-5	-0.8
27	CC(C)CN(C)C(=O)CCc1nnc(Cc2cccc(C(F)(F)F)c2)o1	5.2	-1.9	-6	-4%	-1.5	0	-5	-1.1
28	CCCc1cc(C(=O)N2CCCC(C(=O)c3cc(C)c(OC)c(C)c3)C2)n(C)n1 (stereo not given)	1.8	2.5	-7	.	-0.4	23	13	0.3
29	CN1CCc2nc(SCc3ccc(C(C)(C)C)cc3)c(C#N)cc2C1	-4.0	2.6	6	-20%	-0.8	-36	57*	.
30	Cc1ccc(C(C)(C)C)cc1S(=O)(=O)Nc1nc2ccccc2nc1Cl	-4.9	?	-2	-10%	0.5	32	1	2.4
31	Cc1cc(C)n(C(=O)c2c([N+](=O)[O-])c(C)nn2C)n1	-3.5	1.2	-3	2%	0.8	?	-8	.
32	O=C(COc1ccc(Br)cc1)Nc1ccc(CN2CCOCC2)cc1	5.4	-4.0	0	-9%	-0.6	-10	-2	0.2
33	Cn1c(SCC(=O)c2ccccc2)nnc1-c1ccco1	0.7	3.9	-4	.	-1.4	3	-9	.
34	COc1ccc(N2CCN(Cc3cc(=O)oc4cc(C)c(Cl)cc34)CC2)cc1	1.7	-2.4	3	0%	1.1	2	0	.
35	Cc1ccccc1C(=O)NC(=S)NCCN1CCOCC1	1.6	0.0	-3	.	-0.2	1	8	.
36	COc1ccc(OC)c(N(CC(=O)Nc2ccccc2F)S(=O)(=O)c2ccccc2)c1	-2.9	1.3	-7	.	-0.2	9	25	-1.9
37	Cc1ccc(C)c(NC(=O)c2ccc3ccccc3n2)c1	2.0	-3.6	-8	2%	2.1	-11	-3	.
38	COc1ccc(OC)c(C2N(c3cc(C)on3)C(=O)C3CCCN32)c1 (stereo not given)	5.1	-11	-1	21%	-0.7	-17	-12	.
39	O=C1c2cccc([N+](=O)[O-])c2C(=O)N1c1c[nH]c(=O)[nH]c1=O	-2.0	2.2	-3	?	?	0	-21	-0.2
40	COCCCNc1nc(N)c([N+](=O)[O-])c(Nc2cc(OC)ccc2OC)n1	2.3	4.0	-8	-4%	0.3	-5	4	1.5

# Four of the compounds above, with values under each structure:
# Below each compound – LANA-H2B inh, RanGTP-Impb inh, Beta apoptosis, Vif TR-FRET, Bfl-1 A1 inh, Calb FLC, T cruzi inh, AF4-AF9 inh
36	COc1ccc(OC)c(N(CC(=O)Nc2ccccc2F)S(=O)(=O)c2ccccc2)c1
    -2.9, 1.3, -7, ., -0.2, 9, 25, -1.9
37	Cc1ccc(C)c(NC(=O)c2ccc3ccccc3n2)c1
    2.0, -3.6, -8, 2%, 2.1, -11, -3, .
38	COc1ccc(OC)c(C2N(c3cc(C)on3)C(=O)C3CCCN32)c1 (stereo not given)
    5.1, -11, -1, 21%, -0.7, -17, -12, .
39	O=C1c2cccc([N+](=O)[O-])c2C(=O)N1c1c[nH]c(=O)[nH]c1=O
    -2.0, 2.2, -3, ?, ?, 0, -21, -0.2

# (more compounds)
entry	SMILES	LANA-H2B inh	RanGTP-Impb inh	Beta apoptosis	Vif TR-FRET	Bfl-1 A1 inh	Calb FLC	T cruzi inh	AF4-AF9 inh
41	COc1ccc(Cl)cc1NC(=O)CSc1nc(=O)n(CCN(C)C)c2c1CCCC2	3.9	-1.7	1	-6%	0.2	2	21	-2.8
42	O=C(OCC1CC(c2ccccc2)=NO1)c1ccc(Br)cc1 (stereo not given)	1.3	-0.8	-6	6%	-0.6	13	0	-10
43	CCc1cccc(NC(=O)c2cccc3c2C(=O)N(CC2CCCO2)C3)c1 (stereo not given)	-2.2	3.9	2	.	.	3	17	-10
44	O=C(Nc1ccc(Br)cc1)c1cccnc1N1CCOCC1	-1.6	-0.2	-5	.	0.3	45	-7	-1.5
45	COc1cccc(NC(=O)c2ccccc2N(Cc2ccccc2)S(C)(=O)=O)c1	3.4	1.2	-11	0%	0.3	0	0	1.0
46	CC1CN(C(=S)Nc2ccc(SC(F)F)cc2)CC(C)O1 (stereo not given)	0.5	-0.7	-7	.	-0.6	1	-13	-0.6
47	Cc1cc(O)c(Oc2cc(C)cc(O)c2O)c(O)c1	4.1	-2.3	-11	14µM*	-0.6	?	-12	4.5
48	CC(C)[C@H](NC(=O)N1CCn2c1nc1ccccc12)C(=O)N[C@@H](Cc1ccccc1)C(=O)O	-0.7	0.2	.	.	0.2	-2	-20	-2.1
49	O=C(O)c1cccc(CN2C(=O)SC(Nc3cccc4ccccc34)C2=O)c1 (stereo not given)	3.9	2.4	-7	.	-0.3	6	-18	-2.5
50	COc1ccc(C(=O)COC(=O)CN2C(=O)C3C4C=CC(C4)C3C2=O)cc1 (stereo not given)	-1.6	-2.0	-4	0%	1.5	1	-14	.
51	O=C(Nc1cccc(NC(=O)c2cccs2)c1)c1ccc([N+](=O)[O-])o1	0.5	-5.0	12	9%	0.8	65	68*	-1.8
52	COc1ccccc1NS(=O)(=O)c1cc(C(=O)N2CCCC2)ccc1C	0.3	.	-3	-16%	-0.3	.	.	-1.2
53	Cc1ccc(-c2ccc(=O)n(CCC(=O)N3CCN(c4ccccc4)CC3)n2)cc1	0.7	5.7	-5	-7%	0.3	?	-5	2.5
54	CCc1ccccc1N(C)S(=O)(=O)c1cc(-c2cc(C)no2)ccc1OC	-2.6	-2.4	-13	.	0.0	53	18	0.8
55	O=C(O)COc1ccc(/C=N/NC(=O)c2ccccc2Br)cc1	-7.1	-3.9	.	.	0.1	1	-6	.
56	COc1cccc(C(=O)NC(=S)NCc2ccco2)c1	4.0	3.4	-2	-5%	-0.1	-11	-18	-0.7
57	O=c1c2ccccc2c(-c2ccccc2)nn1-c1ccc(Cl)c(Cl)c1	2.9	-0.1	22	-3%	1.4	2	-18	.
58	Cc1ccc(-c2nnc(-c3ccc(NC(=O)c4cccs4)cc3)o2)cc1	3.7	-0.8	24	-2%	-0.4	22	22	3.1
59	CCc1nc(C)cn1S(=O)(=O)c1cc(C)c(OC)c(C)c1C	-1.0	-1.6	6	1%	0.2	?	-11	.
60	COc1ccc(OC)c(/C=N/NC(=O)CCc2n[nH]c(=O)[nH]c2=O)c1	0.5	1.7	-3	3%	0.5	0	-26	-1.3
61	O=C(Nc1nc2ccccc2[nH]1)c1ccccc1F	-0.3	2.4	89*	-6%	-8.4	24	-14	.
62	Cc1ccc(-c2csc3nnc(SCC(=O)NCc4ccco4)n23)cc1	3.1	-3.8	-5	3%	1.4	-16	2	.
63	Cc1nc2ccccc2n1CC(=O)NCCN1CCCC1	5.1	5.5	6	23%	0.9	5	.	.
64	CCSc1nc(C(F)(F)F)cc(=O)n1-c1ccccc1	4.8	-3.7	-9	0%	-0.1	6	-4	.
65	Cc1cccc(NC(=O)CSc2nnc(-c3ccco3)n2CC2CCCO2)n1 (stereo not given)	-4.0	3.5	-2	5%	0.6	4	-3	-1.1

# From PubChem
